# Screens as filed in PubChem.
# HCMV NEC inh: cytomegalovirus nuclear egress complex inhibition. HTRF UL50-UL53 interaction, normalized percent inhibition. inhibition, % (concentration not given with the values). hit rate 0.15% among 190,000;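 active means both replicates at 50% or more, plus weaker picks with an unusually low signal ratio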;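 further: stock transfer was 100 nL into about 20 µL; 0% = negative control wells and 100% = wells with untagged competitor protein; inactives centre near -12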
# * marks the source's active call; other numbers are inactive results; & = joins results of further samples. This is a subset; rates above refer to the full screens.
molecule | HCMV NEC inh
CC(C)[C@@H]1NC(=O)[C@H](Cc2ccccc2)NC(=O)[C@@H](CC(=O)O)NC(=O)CNC(=O)[C@H](CCCN=C(N)N)NC1=O | -14
C[C@]1(Cn2ccnn2)C(C(=O)O)N2C(=O)CC2S1(=O)=O (some centres undefined) | -33
Cc1cc2cc(CNC(=O)CCc3ccccc3)ccc2[nH]1 | -13
Cc1c(Cl)cccc1NC1OC(=O)c2ccccc21 (centres undefined) | -16
O=C(O)c1ccccc1SC1CC(=O)N(C2CCCCC2)C1=O (centres undefined) | -16
CCC1NC(=O)c2cc(S(N)(=O)=O)c(Cl)cc2N1 (centres undefined) | 8
O=C1CC(c2ccc3c(c2)OCCO3)Oc2ccccc21 (centres undefined) | -16
CCOC(=O)Cn1c2ccc(Cl)cc2c2nc3ccccc3nc21 | -4&-2
COc1ccc(S(=O)(=O)NCc2ccco2)cc1OC | 3
COc1ccc(C(=O)CSc2nc3ccccc3[nH]2)cc1 | -5
Cc1cc(SCNC(=O)c2ccccc2)nc(C(C)C)n1 | -7
CCCCCCCCCCCCC(=O)N[C@H]1CCOC1=O | -6&-6
N#Cc1ccc(-n2ccnc2)cc1 | -11
COC(=O)CSc1nnc(-c2cccs2)n1-c1ccc(OC)cc1 | -12
Nc1ccc(-c2nc3ccccc3[nH]2)c(N)c1 | -4

# Quoted at random: 2 records from the list, in no set order.
molecule | HCMV NEC inh
CCCCCCCCCCCCC(=O)N[C@H]1CCOC1=O | -6&-6
O=C(O)c1ccccc1SC1CC(=O)N(C2CCCCC2)C1=O (centres undefined) | -16

# The results go on.
molecule | HCMV NEC inh
Cc1cc2cc(NC(=O)c3ccco3)ccc2[nH]1 | -12
CC(C)c1nnc(NC(=O)c2c(F)cccc2F)s1 | -14
CCCCCCCC/C=C\CCCCCCCC(=O)NCC | -17&-17
O=C1c2ccccc2OCC12COC(c1ccccc1)OC2 (centres undefined) | -3
Cc1nc(Cl)c2cc(-c3ccccc3)sc2n1 | -19
CCCCCC(O)c1cccc(OCc2ccc3ccccc3n2)c1 (centres undefined) | -4&-4&3
Cc1ccc(-n2ncc3c(=O)[nH]c(SCC(=O)NCc4ccco4)nc32)cc1 | 4
CC(C)OC(=O)c1cc2ccccc2oc1=O | -68
CN1CC[C@]23c4ccccc4N[C@H]1[C@]21CCN(C)[C@H]3Nc2ccccc21 | -24
Cc1[nH]c2ccccc2c1SCCNC(=O)Cc1ccccc1 | -5
O=S(Cc1cc(Cl)nc(-c2ccccc2)n1)c1ccccc1 (centres undefined) | 6
C[C@]12CCC(=O)C=C1CC[C@@H]1[C@@H]2[C@@H](O)C[C@@]2(C)[C@H]1CC[C@]2(O)C(=O)COC(=O)CCC(=O)O | -15
O=C1CC(c2ccc(O)cc2)Oc2cc(O)ccc21 (centres undefined) | -32
CN(CCOC(=O)c1ccc(Cl)cc1)c1ncc(C(F)(F)F)cc1Cl | 1
CCn1c(=NC(=O)CSCC(=O)N2CCN(c3ccccc3)CC2)sc2cc(F)ccc21 | -4

# Next part.
molecule | HCMV NEC inh
COC(=O)C1=C(NC(=O)c2ccc3c(c2)OCO3)CCS1 | -29
CCc1c(C(=O)NCCc2ccc(N3CCCCC3)cc2)[nH]c2ccc(Cl)cc12 | -23
Nc1ccc(S(=O)(=O)NC2=NCCCCC2)cc1 | -17
CSc1nsc(C)c1C#N | -2
COc1ccc(Cn2c(=O)oc3ccccc32)cc1OC | 4&-3
CN(C)c1ccc(/C=C/C(=O)C2=C(O)c3ccccc3C2=O)cc1 | -19
O=C(/C=C/c1ccc(-c2cc(Cl)ccc2Cl)o1)N1CCOCC1 | -26
Cc1nc2cc(NC(=O)C3COc4ccccc4O3)ccc2s1 (centres undefined) | -8
COC(=O)COc1cc2occ(-c3csc(C)n3)c(=O)c2cc1C | -15
CN1C(=O)CC(c2ccccc2)C1=O (centres undefined) | -15&-69
CCN1CCN(S(=O)(=O)c2ccc(F)cc2)CC1 | -22
Cc1nnc(NC(=O)c2ccc3ccccc3c2)s1 | 11
Cc1ccc(Cl)cc1NC(=O)CC(NCC1CCCO1)C(=O)O (centres undefined) | -1
CC(C)(CO)NC(=O)C(c1ccccc1)c1ccccc1 | -20
Cc1cc2ncc(C(=O)c3ccccc3O)cn2n1 | 3

# Following part
molecule | HCMV NEC inh
N#CC1=C(N)Oc2cc(N)ccc2C1c1cccnc1 (centres undefined) | -35&-21
COC(=O)c1ccc(CSc2nc3c(c(=O)n2-c2ccccc2)SCC3)o1 | -2
CCCC(=O)Nc1nc(-c2ccc(F)cc2)cs1 | -2
O=C(Nc1nc(-c2cc3ccccc3oc2=O)cs1)C1CC1 | -10
CC(C)(C)C(=O)CSc1nnc(-c2ccncc2)o1 | -17
Cc1cc(C)c(S(=O)(=O)N2CCOCC2)cc1C | -13
COC(=O)c1sc2ccccc2c1NC(=O)c1ccc(Br)s1 | -6
COC(CNC(=O)c1sc2nc(-c3ccccc3)cn2c1C)OC | -3
O=Nc1ccc(O)c2ncccc12 | -37
NCc1cccc2ccncc12 | -24&-24
Cc1ccc(-c2csc(=NC(=O)C(C)C)n2-c2ccc(C)cc2)cc1 | -15
Cc1ccc(C)c(NC2=NC3CS(=O)(=O)CC3S2)c1 (centres undefined) | -6
COc1ccccc1Cn1ncc2[nH]c(-c3ccccc3OC)nc21 | -18&-18
CC1(C)CCC(C)(C)c2cc(C(=O)Nc3ccc(C(=O)O)cc3)ccc21 | -14&-16
Cc1ccccc1NC(=O)c1cccc(Cn2cc(C(F)(F)F)ccc2=O)c1 | -10

# No new results follow: 5 of the compounds above.
molecule | HCMV NEC inh
Cc1ccc(-c2csc(=NC(=O)C(C)C)n2-c2ccc(C)cc2)cc1 | -15
Cc1ccc(C)c(NC2=NC3CS(=O)(=O)CC3S2)c1 (centres undefined) | -6
COc1ccccc1Cn1ncc2[nH]c(-c3ccccc3OC)nc21 | -18&-18
CC1(C)CCC(C)(C)c2cc(C(=O)Nc3ccc(C(=O)O)cc3)ccc21 | -14&-16
Cc1ccccc1NC(=O)c1cccc(Cn2cc(C(F)(F)F)ccc2=O)c1 | -10

# Following part:
molecule | HCMV NEC inh
O=C(CSc1nc2ccccc2[nH]1)Nc1ccccc1 | 5
O=C(CS(=O)(=O)c1cn(Cc2ccc(Cl)cc2)c2ccccc12)Nc1nccs1 | 6
CCCCCCCCCCOc1ccc(OCC(=O)Cn2cc(C(=O)OC)c3cc(C(=O)O)ccc32)cc1 | -22&-22
C=CCSC1=C(C#N)C(c2ccc(C(C)C)cc2)CC(=O)N1 (centres undefined) | -23
CCCn1c(-c2ccc(N(C)C)cc2)nc2ccccc21 | -2
O=S1(=O)CC(O)C(N2CCCCC2)C1 (centres undefined) | -3
CN(C)c1ccc(NC(=O)CC2Sc3ccccc3NC2=O)cc1 (centres undefined) | 6
O=C(Cc1ccccc1)Nc1ccc(N2CCOCC2)cc1 | -6
Cc1ccc(N=C2NC(=O)/C(=C\c3cccs3)S2)c(C)c1 | -11&-2
COc1cc(CN2CCN(Cc3ccc4ccccc4c3)CC2)cc(OC)c1OC | -8
CCN1CCN(c2cc3c(nn2)Oc2ccccc2N3C)CC1 | -18
O=C(CC(=O)C(F)(F)F)c1cccs1 | -14
O=C(Cc1ccccc1)Nc1c2c(nn1-c1ccccc1)CS(=O)C2 (centres undefined) | -3
CSc1ccc(C(N)CC(=O)O)cc1 (centres undefined) | -4
CNc1ncnc2c1ncn2[C@@H]1O[C@H](CO)[C@@H](O)[C@H]1O | 1

# Next section:
molecule | HCMV NEC inh
Cc1ccc2oc(C(=O)Nc3nnc(C(C)C)s3)c(C)c2c1 | -9
CC(C)OC(=O)CCC/C=C\C[C@@H]1[C@@H](/C=C/[C@H](O)C2Cc3ccccc3C2)[C@@H](F)C[C@@H]1O | -10&-10
N=C(N)SCCc1ccc(CCSC(=N)N)cc1 | -1&-1
Cc1ccc(S(=O)(=O)N2CCSc3ccccc32)cc1 | -9
COC(=O)c1cc(Br)c(O)c(Br)c1 | 1
CCOC(=O)c1c(C)nn(-c2ncccc2C(F)(F)F)c1C | 8
CC(C)N1C(=O)/C(=C/c2cccc(Cl)c2Cl)SC1=S | 3
Cc1ccccc1OCCC(=O)O | 6&-7
CCOC(=O)C1CCN(CC(O)COc2cccc(C)c2)CC1 (centres undefined) | -4
O=C(NCCCNc1nc(Nc2cccc(NC(=O)N3CCCC3)c2)ncc1I)c1cccs1 | 24&-27&-15&-24
CC(C)(C)NC(=O)CN1C(=O)S/C(=C\c2ccccc2)C1=O | -6
O=C(Cc1noc2ccccc12)NCc1cccc(Cl)c1 | 1
COC(=O)C(OC)c1cc(C(C)(C)C)c(O)c(C(C)(C)C)c1 (centres undefined) | -4
COc1ccc(N2CCN(Cc3nc4nc(C)cc(C)n4c3Br)CC2)cc1 | -12
Cc1ccc2cccc(OC(=O)c3ccc(C)c(C)c3)c2n1 | -12

# Other compounds:
molecule | HCMV NEC inh
COc1ccc(C(=O)NCc2ccc3[nH]c(C)cc3c2)cc1OC | -5
CC1CCCCN1Cc1cn2c(-c3ccc(Br)cc3)nnc2s1 (centres undefined) | -4&-10
CN1CCc2cc(Cl)c(O)cc2C(c2ccccc2)C1 (centres undefined) | -56
CC(C)(C)C(=O)Nc1ccc2c(c1)C(=O)C(=O)c1ccccc1-2 | 122*
CC(C)n1cnc2c(NCCCCCCNC(=O)OC(C)(C)C)nc(NCCO)nc21 | -12
CCOC(=O)c1ccc(CC2SC(N)=NC2=O)cc1 (centres undefined) | 1&-10
O=C1CCCc2c1[nH]c1ccc(-c3ccccc3)cc21 | -17
CCC(=O)Nc1ccc(C(=O)n2ccc(C)n2)cc1 | -8
COc1ccc(C(=O)Nc2sc3c(c2CN(C)C)CCCC3)cc1 | 6
COc1ccc(OC)c(S(=O)(=O)Nc2cc(Cl)ccc2OC)c1 | -10
CCCCCCCCCCCCCCCNC(=O)C1CCCCC1 | -24&-24
CC1(C)CC(=O)c2sc(NC(=O)c3cc(=O)c4ccccc4o3)nc2C1 | -63
CCCC(=O)Nc1c2c(nn1-c1ccc(OC)cc1)CSC2 | -15
CSc1nnc(Cn2c(=O)sc3ccccc32)n1-c1ccccc1 | 4
O=C(O)/C=C/CCCCCCCCC(=O)O | -2&-2

# Going on with the list.
molecule | HCMV NEC inh
CCC1OC(=O)C(C)C(OC2C[C@@](C)(OC)C(O)C(C)O2)C(C)C(OC2OC(C)CC(N(C)C)C2O)[C@](C)(O)CC(C)CN(C)C(C)C(O)[C@]1(C)O (some centres undefined) | 28
CC(C)(C)C(=O)OCOC(=O)[C@@H]1N2C(=O)[C@@H](NC(=O)[C@H](N)c3ccccc3)[C@H]2SC1(C)C | -27
O=c1[nH]c2ccc(Br)cc2c(-c2ccccc2)c1CN1CCOCC1 | -4
COC(=O)C1=C(N)OC2=C(C(=O)CC(C)(C)C2)C1c1ccccc1 (centres undefined) | -5&-12
COc1cc(C(C)=O)ccc1O | -7
O=C(C1CCN(S(=O)(=O)c2cccs2)CC1)N1CCc2ccccc2C1 | -15
Clc1ccc2nc(N3CCNCC3)nc(-c3ccccc3)c2c1 | -50
CCCCCOC(=O)Nc1nc(=O)n(C2OC(C)C(O)C2O)cc1F (centres undefined) | -12
NC(=NCc1ccc(Cl)cc1Cl)NC(=O)c1nc(Cl)c(N)nc1N | -50
CCOC(=O)NC[C@H](Cc1ccc(OCCc2nc(-c3ccccc3)oc2C)cc1)N/C(C)=C\C(=O)c1ccc(C(F)(F)F)cc1 | 13
N#CC(C#N)=C(/C=C/c1cccs1)C1CC1 | -8
O=C(NC1CCCCC1)OCn1c(=O)oc2cc(Cl)ccc21 | -5
Cc1ccc(/C=N/c2sc(C)c(C)c2C#N)s1 | 4
Fc1ccc(-c2cn3c(n2)-c2ccccc2C3)cc1 | -21
O=C(Nc1n[nH]c(Cc2ccccc2)n1)N1CCN(c2ncncn2)CC1 | -19&-19

# The list goes on.
molecule | HCMV NEC inh
Cc1ccc(-n2[nH]c(C)c(N=Nc3cccc(-c4cccc(C(=O)O)c4)c3O)c2=O)cc1C | 80*
CCN(CC)C(=O)CCn1c(=O)oc2ccccc21 | -9
CC(C)c1ccc(/C=C\C(=O)O)cc1 | -10
CO[C@]12C[C@@H](COC(=O)c3cncc(Br)c3)CN(C)[C@@H]1CC1=CN(C)C3C=CC=C2C13 (some centres undefined) | -32
CC(C)C(=O)Nc1ncc(Cc2ccc(Cl)cc2)s1 | -6
Cc1ccc(-c2cc(C(=O)NCc3c(C)nn(C)c3C)cc(S(=O)(=O)N3CCOCC3)c2)s1 | -5
CC(C)CCN1C(=O)N(CCN(C)C)C(=O)C12CCN(Cc1cn(C)c3ccccc13)CC2 | 6
C=CC(=O)Nc1ccc(Oc2nc(Nc3ccc(N4CCN(C)CC4)cc3OC)ncc2Cl)cc1 | -4
Cc1ccc(SC(C)C(=O)Nc2ccc(C(C)(C)C)cc2)cc1 (centres undefined) | -7
FCOC(C(F)(F)F)C(F)(F)F | -22
CNC(=O)[C@H]1O[C@@H](n2cnc3c(NCc4cccc(I)c4)nc(Cl)nc32)[C@H](O)[C@@H]1O | -3
C/C(Nc1ccccc1Oc1ccccc1)=C1/CCOC1=O | -3
Cc1nc2ccc3nc(NC(=O)C4=COCCO4)sc3c2s1 | -1
COc1ccc(C(=O)Nc2nc3ccc(F)cc3s2)cc1 | -14
CCn1c(=NC(=O)Cc2ccccc2)sc2cc(Br)ccc21 | -7

# Following part.
molecule | HCMV NEC inh
c1nc(N2CCCCCC2)c2[nH]cnc2n1 | -14
Cc1cc(Nc2cc(CN3CCOCC3)c3nc(C)c(Cc4ccc(Cl)cc4F)n3n2)n[nH]1 | -3
c1ccn2cc(CSC3=NCCS3)nc2c1 | -2
CN(CC(O)COc1ccc(Br)cc1)C1CCCCC1 (centres undefined) | -8
O=C(/C=C/c1ccccc1)Nc1ccc(S(=O)(=O)Nc2nccs2)cc1 | -41&-17
CCC(C)NC(=O)c1ccc2c(c1)ncn2-c1cc(C)cc(C)c1 (centres undefined) | -9
CC(CO)NC(=O)c1cc2ccccc2oc1=O (centres undefined) | -94
CC1=CC(C(C#N)C#N)C=C(c2ccccc2)O1 (centres undefined) | -42
